Source: PubChem BioAssay (ICCB-Longwood Screening Facility, Harvard Medical School)
Vaccinia pol inh: vaccinia E9 polymerase processive synthesis inhibitors, primary screen, biochemical, absorbance | in vitro processive DNA synthesis, absorbance read-out; stronger effect = lower value; some inactives read as strong as hits | normalized absorbance, % (concentration not given with the values) | 46,000 tested, 0.94% active | AID 493162, 2011;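 active = replicate mean up to 90% and picked by the depositor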;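 also: 100% = median of the test wells of a plate; 100 nL library stock went into each well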
* hit, by the source's call. These rows are one share of the data (hit frequency here may not be typical).

SMILES	Vaccinia pol inh
CC(=O)N/C(=C/c1ccccc1)C(=O)N1CCc2ccccc21	100
CCCC(=O)NCc1cn2ccsc2n1	101
CC(C)CC(NC(=O)c1ccc(C23CC4CC(CC(C4)C2)C3)cc1)C(=O)NCc1cccnc1 (centres undefined)	103
O=C(Cn1c(=O)sc2ccccc21)Nc1ccccc1	106
O=C(NCCCn1ccnc1)c1cc(C(=O)C2CC2)c[nH]1	110
Cc1cccc(NC(=O)CN2C(=O)C3C4C=CC(C4)C3C2=O)c1 (centres undefined)	103
N#CC1=C(N)Oc2nc(-c3ccccc3)[nH]c2C1c1ccc(OCC(N)=O)cc1 (centres undefined)	101
Cc1c(OCC(=O)C(C)(C)C)ccc2c3c(c(=O)oc12)CCC3	92
Cc1ccc(-n2cc(C(=O)c3cc(C)ccc3O)cc(C#N)c2=O)cc1	101
CCOC(=O)c1sc(SC)c2c1CC/C(=C\N(C)C)C2=O	96
CCn1cc(S(=O)(=O)CC(=O)Nc2ccccc2)c2ccccc21	100
Cc1cc(NCc2ccco2)c2ccccc2n1	100
O=C(OCC(=O)N(Cc1ccccc1)Cc1ccccc1)c1ccc2ccccc2n1	107
Cc1cccnc1N/C=C1/CCCCC1=O	103
Cc1ccc(N2C3=C(C(=O)CC(C)(C)C3)C(c3cccs3)C3=C2CC(C)(C)CC3=O)cc1C	95
COCc1nc2ccccc2n1Cc1ccccc1C	102
CN(C)CP(=O)(O)CCn1c2ccccc2c2ccccc21	100
COC(=O)c1ccccc1OCC(=O)Nc1ccc(C)cc1C	110
O=C(COC(=O)c1ccc(F)cc1)NC(c1ccccc1)c1ccccc1	98
CCC1CCCCN1C(=O)CSC1=NN2CCCC(=O)N=C2S1 (centres undefined)	100
CCN(CC)C(=O)/C=C/c1cn(-c2ccccc2)nc1-c1cccs1	88
CCc1ccc(/C=C2\NC(=S)N(C3CCCCC3)C2=O)cc1	100
OCC12COC(c3ccccc3)N1C(c1ccccc1)OC2 (centres undefined)	102
O=C(COc1ccc2ccccc2c1)N1CCNCC1	100
COc1ccc(-n2c(N)c(-c3nc4ccccc4s3)c3nc(C#N)c(C#N)nc32)cc1	101
Cc1c(C#N)c(N=CN(C)C)c(C(=O)c2ccccc2)n1-c1ccccc1	100
COc1ccc(CNc2nc3ccccc3n2C)cc1OC	103
O=C(CSc1nnc2sc3ccccc3n12)N1N=CCC1c1ccccc1 (centres undefined)	102
CCc1cccc(NS(=O)(=O)c2ccc3c(c2)CC(C)N3C(C)=O)c1 (centres undefined)	95
CSc1nc(C2CC2)cc(-c2ccccc2)c1C#N	100
Cc1cc2cc(CNC(=O)/C=C\c3ccccc3)ccc2[nH]1	100
CC(=O)NC12CC3(C)CC(C)(CC(C)(C3)C1)C2	102
CCCN(C(=O)C1CCCN1S(=O)(=O)c1cccc2nsnc12)c1ccc(C(C)C)cc1 (centres undefined)	106
Cc1ccc(NC(=O)c2cccnc2)cc1C	106
CC1CCCN(C(=O)COC(=O)c2ccc(Br)cc2)C1 (centres undefined)	97
CC(=O)Nc1ccc(C(=O)OCC(=O)Nc2cc(Cl)cc(Cl)c2)cc1	90
C=CCNC(=O)CCn1c(=O)oc2ccccc21	100
Cc1ccc2nc(-c3ccccc3)cn2c1	99
COc1ccc(C2=CC(=O)N(c3ccccc3)C(c3ccccc3)O2)cc1 (centres undefined)	100
C=Cn1c(C(=O)O)ccc1-c1ccc(C)cc1	81
CCC(Sc1nnc(C)c(=O)[nH]1)C(=O)Nc1ccccc1C#N (centres undefined)	99
O=C(NCc1ccco1)c1cc(Cl)cc(Cl)c1	101
Cn1ccnc1C(=O)c1ccccc1Cl	103
CC(=O)Sc1nc(-c2ccc(C)cc2)[nH]c1S(=O)(=O)c1ccccc1	100
COc1cccc2sc(N(C)c3ccccc3)nc12	93
N/C(=N\S(=O)(=O)c1cc(C(F)(F)F)cc(C(F)(F)F)c1)N1CCSCC1	106
CC(C)n1c(CCNC(=O)C(C)(C)C)nc2ccccc21	100
COc1ccc(Cc2nc(-c3ccc(Br)cc3)no2)cc1	94
CC(=O)Oc1ccc2oc(-c3ccccc3)c(C(=O)O)c2c1	100
Cc1ccc(N2C(=O)CC(Sc3ccccc3C(=O)N3CCOCC3)C2=O)cc1 (centres undefined)	103
CN1CCCNC1c1ccc(-c2ccc(Br)cc2)o1 (centres undefined)	99
CCC(CC)(CN(C)C)OC(=O)c1ccccc1	100
COc1ccc(/C=C2\Oc3cc(OCc4cccc(C)c4)ccc3C2=O)cc1	100
O=c1cc(CCl)c2ccc(O)cc2o1	96
CCCN(CCC)C(=O)c1ccc2c(c1)N(Cc1ccccc1F)C(=O)c1ccccc1S2(=O)=O	98
COC(=O)c1cc(C#N)c(C)nc1Sc1nccn1-c1cc(Cl)ccc1Cl	94
O=C(CSc1ccccc1C(=O)O)c1ccc(Cl)cc1	100
CC(C)(C)NS(=O)(=O)c1ccc(F)cc1	100
CC1=C(C(=O)c2ccccc2)CNC(=S)N1	100
CCN(CC)C(=O)c1oc2ccc(S(=O)(=O)N3CCCC3)cc2c1C	99
Other records follow:
SMILES	Vaccinia pol inh
COc1cc2c(cc1OC)C(C)N(C(=O)c1nn(-c3ccccc3)nc1C)CC2 (centres undefined)	99
CN(Cc1ccccc1)C(=O)c1cc2c(s1)-c1ccccc1S(=O)(=O)C2	103
COc1ccc2cc(Br)ccc2c1CC(=O)NC(C)C	98
COc1ccc(CN2CCCN(Cc3ccc(OC)cc3)C2c2cccc(C)n2)cc1	87
O=C(Cn1nc(Cc2ccncc2)c2ccccc2c1=O)N1CCCc2ccccc21	102
O=c1oc(C2CC2)nc2ccccc12	101
CCc1ccc(C2CC(=O)NC3=C2C(=O)CCC3)cc1 (centres undefined)	102
O=c1[nH]c2c(=O)[nH]c(=S)[nH]c2nc1/C=C(\O)c1ccccc1	80
Cc1ccc(C)c(NC(=O)C(OC(=O)c2cccnc2Cl)c2ccccc2)c1 (centres undefined)	91
CN1CCN(CC(O)COc2ccc(C3CCCCC3)cc2)CC1 (centres undefined)	101
CC1CC(C)CN(C(=O)c2cc(-c3ccccn3)nc3ccc(S(=O)(=O)N4CCOCC4)cc23)C1 (centres undefined)	125
O=C(c1ccc(Cl)cc1)C1CCN(C(=O)c2cnc3ccccc3n2)CC1	104

Rewritten as comma-separated lines: ten of the compounds above.
Structure,Vaccinia pol inh
CN(Cc1ccccc1)C(=O)c1cc2c(s1)-c1ccccc1S(=O)(=O)C2,103
COc1ccc2cc(Br)ccc2c1CC(=O)NC(C)C,98
COc1ccc(CN2CCCN(Cc3ccc(OC)cc3)C2c2cccc(C)n2)cc1,87
O=C(Cn1nc(Cc2ccncc2)c2ccccc2c1=O)N1CCCc2ccccc21,102
O=c1oc(C2CC2)nc2ccccc12,101
CCc1ccc(C2CC(=O)NC3=C2C(=O)CCC3)cc1 (centres undefined),102
O=c1[nH]c2c(=O)[nH]c(=S)[nH]c2nc1/C=C(\O)c1ccccc1,80
Cc1ccc(C)c(NC(=O)C(OC(=O)c2cccnc2Cl)c2ccccc2)c1 (centres undefined),91
CN1CCN(CC(O)COc2ccc(C3CCCCC3)cc2)CC1 (centres undefined),101
CC1CC(C)CN(C(=O)c2cc(-c3ccccn3)nc3ccc(S(=O)(=O)N4CCOCC4)cc23)C1 (centres undefined),125

(list continues)
SMILES	Vaccinia pol inh
CSc1ccc(-c2cc(=O)c3ccccc3o2)cc1	100
O=C(O)C1C2CCC(C2)C1C(=O)NCc1ccco1 (centres undefined)	100
Cn1nc(C(F)(F)F)c(/C=N/O)c1Sc1ccccc1	84
O=C(Cc1cn(Cc2cccc(Cl)c2)c2ccccc12)Nc1nc2ccccc2s1	104
CO/N=C(\C(=O)NC1C(=O)N2C(C(=O)O)=C(CSc3nc(=O)c(O)nn3C)CS[C@H]12)c1csc(N)n1 (some centres undefined)	75
CSc1nc2ccccc2c(=O)n1-c1cccnc1	89
Cc1cc(C#N)c(C)n1-c1ccc(Br)cc1	102
CN(/N=C1/CCN(C2CCCCC2)C1=O)c1ccc(Cl)cc1	97
COc1ccc(S(=O)(=O)N(CCC#N)C2CCCc3ccccc32)cc1OC (centres undefined)	98
O=C(NCc1csc(-c2cccs2)n1)c1ccno1	89
COc1cccc2sc(=NC(=O)c3ccc(C#N)cc3)n(C)c12	101
Cc1ccccc1OCC(O)Cn1c2ccccc2c2ccccc21 (centres undefined)	99
O=C(O)CCn1cc(I)c(=O)[nH]c1=O	100
CN(C)S(=O)(=O)c1ccc(C(=O)N2CCN(c3ccccc3)CC2)cc1	100
O=c1c2ccccc2c(-c2ccccc2)nn1Cc1ccccc1	100
C/C=C(\C)C(=O)O[C@H]1C[C@@H](OC(C)=O)[C@@]2(C(=O)OC)CO[C@@H]3C2[C@]12CO[C@](O)(C(=O)OC)[C@H]2[C@](C)(C12O[C@@]1(C)[C@H]1C[C@@H]2OC2OC=C[C@@]21O)[C@@H]3O (some centres undefined)	100
O=C(OCC(=O)N1CCCCC1)c1ccccc1C(F)(F)F	105
CC(=O)Nc1ccc(Cc2ccc(NC(C)=O)cc2)cc1	103
CSc1nnc(NC(=O)c2cccs2)s1	99
O=P(c1ccccc1)(c1nc2ccccc2s1)N1CCCCCC1 (centres undefined)	99
CCN(CC)C(=O)Oc1ccnc2cc(Cl)ccc12	100
CCOC(=O)C1CCN(C(=O)Nc2ccccc2)CC1	88
O=C(COc1ccccc1Br)Nn1c(=S)[nH]c2ccccc2c1=O	102
CCOC(=O)c1ccc2nc(C(F)(F)F)nc(NCCc3ccc(OC)cc3)c2c1	95
C=CCn1c(SCC(=O)N2CCN(c3ccc(F)cc3)CC2)nnc1-c1ccco1	99
Cn1c(SCC(=O)OCC(=O)c2ccc(Br)cc2)nc2c1c(=O)[nH]c(=O)n2C	101
Cc1nc(/N=C(/N)NC(=O)c2ccccc2)nc2ccccc12	100
O=C(Cn1ncc2ccccc21)N1CCc2ccccc2C1	91
Cc1cc(N)n(-c2nc3ccccc3n2Cc2ccc(C#N)cc2)n1	98
COC(=O)c1ccc(CSc2ncnc3c2oc2ccccc23)o1	98
COc1cccc(C(=O)Oc2ccc3c(c2)NC(C)(C)C=C3C)c1	108
Cn1c(=O)oc2cc(S(=O)(=O)N3CCCCC3)ccc21	104
O=C(CSc1nc2ccccc2[nH]1)Nc1cccc(Oc2ccccc2)c1	90
O=S1(=O)CCN(Cc2cccc(C(F)(F)F)c2)CC1	118
Cn1ncc(Br)c1C(=O)NN	100
CCc1nnc2sc(-c3ccc(N)cc3)nn12	114
CC1CC(NC(=S)N(C)C)CC(C)(C)C1 (centres undefined)	102
CN1CCN(c2c3c(nc4ccccc24)C2(C)CCC3C2(C)C)CC1 (centres undefined)	117
NC(Cn1ccnc1)c1ccccc1 (centres undefined)	101
COc1ccccc1N1CCN(C(=S)c2ccccc2OC(F)(F)F)CC1	100
O=C(COC(=O)CCC1CCCC1)Nc1ncc(C(F)(F)F)cc1Cl	102
O=C1CSC(c2ccccc2)N1c1cccnc1 (centres undefined)	99
CC(C)N(C(=S)Nc1cccc(C(F)(F)F)c1)C(C)c1ccccn1 (centres undefined)	109
O=C1/C(=C/c2cc(Br)cs2)CCC1C1CCCC1 (centres undefined)	106
Fc1ccccc1CN1CCN(c2cccc3[nH]ccc23)CC1	91
COc1ccccc1N1CCN(C(=O)c2cnn(-c3ccc(Cl)cc3)c2C)CC1	84
C=CCn1cc(Cc2cn(CC=C)nc2C)c(C)n1	104
COc1cc(NC(=O)CN2C(=O)COc3cc(S(=O)(=O)N4CCOCC4)ccc32)cc(OC)c1	88

Entries above with two or more sulfur atoms, in the order listed:
SMILES	Vaccinia pol inh
CCOC(=O)c1sc(SC)c2c1CC/C(=C\N(C)C)C2=O	96
CCC1CCCCN1C(=O)CSC1=NN2CCCC(=O)N=C2S1 (centres undefined)	100
O=C(CSc1nnc2sc3ccccc3n12)N1N=CCC1c1ccccc1 (centres undefined)	102
CCCN(C(=O)C1CCCN1S(=O)(=O)c1cccc2nsnc12)c1ccc(C(C)C)cc1 (centres undefined)	106
CC(=O)Sc1nc(-c2ccc(C)cc2)[nH]c1S(=O)(=O)c1ccccc1	100
N/C(=N\S(=O)(=O)c1cc(C(F)(F)F)cc(C(F)(F)F)c1)N1CCSCC1	106
CN(Cc1ccccc1)C(=O)c1cc2c(s1)-c1ccccc1S(=O)(=O)C2	103
CO/N=C(\C(=O)NC1C(=O)N2C(C(=O)O)=C(CSc3nc(=O)c(O)nn3C)CS[C@H]12)c1csc(N)n1 (some centres undefined)	75
O=C(NCc1csc(-c2cccs2)n1)c1ccno1	89
CSc1nnc(NC(=O)c2cccs2)s1	99

(cont.)
SMILES	Vaccinia pol inh
CCCn1c(NCc2ccc(C)o2)nc2ccccc21	103
CCCn1cc(S(=O)(=O)CC(=O)N2CCc3ccccc32)c2ccccc21	87
CC(=O)N/C(N)=N/c1nc2ccccc2o1	100
Nc1cc(C(F)(F)F)ccc1Sc1nc2ccccc2s1	89
O=C(NCCN1CCCC1)C1=Cc2sc3c(c2CS1)CCCC3	74*
CCN1OCN(c2nc(N(C)C)nc(N(C)C)n2)C1=N	100
N/C(CN1CCCCC1)=N\O	95
CCOC(=O)C1CCCN(CCC(=O)Nc2cc(C)ccc2C)C1 (centres undefined)	100
COc1ccc2c(c1)c(-c1csc(N)n1)c(C)n2C	103
CCCN1C(=O)c2cc(C(=O)NCc3cccs3)ccc2C1O (centres undefined)	104
O=C(OCC(=O)N1CCCC1)c1cn(-c2ccccc2)nc1-c1ccccc1	102
Cn1c(C2CC(=O)N(c3ccccc3)C2)nc2ccccc21 (centres undefined)	92
COC(=O)c1ccc(CSc2nnc3c4ccccc4n(C)c3n2)cc1	100
O=C(CC(C(=O)O)N1CCN(c2cccc(Cl)c2)CC1)c1ccc(C2CCCCC2)cc1 (centres undefined)	92
Cc1cc(C)n(-c2nncc(-c3ccccc3)n2)n1	99
CCCn1cnc2cc(NCc3ccncc3)ccc21	107
O=c1cc(N2CCCCC2)nc2n1CCCS2	103
N#Cc1ccc(NC(=O)c2cc3cc4c5c(c3oc2=N)CCCN5CCC4)cc1	104
O=C(Cn1cnc2sc3c(c2c1=O)CCCC3)NCc1ccccc1	101
CCN(C(=O)CSc1nc2ccccc2o1)c1ccccc1	100
O=S1(=O)C=C(SCCN2CCOCC2)c2ccccc21	100
COC(=O)CC1COc2ccccc2N1C(=O)/C=C/c1ccccc1 (centres undefined)	103
Oc1ccc(COCc2ccccc2)c2cccnc12	100
